Screening data from PubChem BioAssay.
Choline anaer gr = choline-fed anaerobic bacterial growth inhibition. Gram-negative bacterium anaerobic choline minimal medium, absorbance growth; stronger effect = lower value; many inactives read as strong as hits in the columns shown. calls only. 55,000 compounds, 0.2% hits;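 active = growth z-score on choline under -2 at 7 or 20 h with little or no fall on glycerol, limits in tiers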;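 note: stock transfer was 300 nL into about 50 µL; the organism is E. coli; final concentration not given here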
Choline anaer gr early = also measured in Choline anaer gr; calls as there; z-score; measured here: choline growth z-score, timepoint 1;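 score of optical density at 7 h as mean of two plates; lower means less growth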
* = called active by the depositor; & = joins results of further samples. Not all compounds are listed (hit frequency here may not be typical).

What do the screens show for `COc1ccc(-c2noc(CCn3c(=O)[nH]c4ccccc4c3=O)n2)cc1OC`?
Choline anaer gr: inactive; Choline anaer gr early: 1.4

How did COc1ccc(Nc2cc(C(=O)NCc3ccccc3)c3ccccc3n2)cc1OC do in these assays?
Choline anaer gr: inactive; Choline anaer gr early: -2.3

How did CCOC(=O)C1CCCN(S(=O)(=O)c2cc(-c3nc(C)c(C)s3)sc2C)C1 (stereo not given) do in these assays?
Choline anaer gr: inactive; Choline anaer gr early: 1.2

Results for CCc1onc(C)c1C1CCCN1C(=O)NC(C)CC (stereo not given) ?
Choline anaer gr: inactive; Choline anaer gr early: 0.02

What do the screens show for `O=c1ncccn1[C@@H]1O[C@H](CO)[C@@H](O)[C@H]1O`?
Choline anaer gr: inactive; Choline anaer gr early: -3.5

How did O=S(=O)(NCCc1n[nH]c(Cc2cccc(F)c2)n1)c1ccccc1Cl do in these assays?
Choline anaer gr: inactive; Choline anaer gr early: -0.32

Results for CC(=O)Nc1nc2ccc(NC(=O)CC3CCCC3)cc2s1 ?
Choline anaer gr: inactive; Choline anaer gr early: 1.4

How did CC1=C(C(=O)NC2CCCCC2C)C2(CCCCC2)OC1=O (stereo not given) do in these assays?
Choline anaer gr: inactive; Choline anaer gr early: 0.84

How did Cc1ccnc(N2CCCC(C(=O)N3CCN(c4ccccn4)CC3)C2)n1 (stereo not given) do in these assays?
Choline anaer gr: inactive; Choline anaer gr early: -0.12

Results for CC(=O)Nc1ccccc1-c1nnc(SC(C)C(=O)Nc2ccc(C)cc2C)[nH]c1=O (stereo not given) ?
Choline anaer gr: inactive; Choline anaer gr early: -0.34

What do the screens show for `CCCSCCCN1C(=O)c2nc3ccccc3n2CC1(C)C(=O)NC1CCC(C)CC1` (stereo not given)?
Choline anaer gr: inactive; Choline anaer gr early: 0.36

What do the screens show for `Cc1nc(CNC(=O)[C@H]2CSCN2C(=O)Nc2cccc(Br)c2)cs1`?
Choline anaer gr: inactive; Choline anaer gr early: 0.3

How did COc1ccc2c(c1)CCc1c-2n[nH]c1C(=O)N1CCC(N(C)CCCN2CCOCC2)CC1 do in these assays?
Choline anaer gr: inactive; Choline anaer gr early: 0.77

What do the screens show for `COc1ccc(C(O)(C(C)C)C(CN2CCOCC2)c2ccccc2)cc1` (stereo not given)?
Choline anaer gr: inactive; Choline anaer gr early: 0.28

How did CCOC(=O)Cc1ccc(NC(=O)N2CC(CC)Oc3ccc(Cl)cc32)cc1 (stereo not given) do in these assays?
Choline anaer gr: inactive; Choline anaer gr early: -1.9

Results for Cc1ccc(NC(=O)c2ccc3nnc(SCC(=O)Nc4ccc5c(c4)OCCO5)n3c2)cc1 ?
Choline anaer gr: inactive; Choline anaer gr early: -2.9

How did CC1CSc2ccc(S(=O)(=O)N3CCCC3)cc2N(CC(=O)N2CCCc3ccccc32)C1=O (stereo not given) do in these assays?
Choline anaer gr: inactive; Choline anaer gr early: -0.18

Results for Cc1c(C(=O)O)oc2c1C(=O)CCC2 ?
Choline anaer gr: inactive; Choline anaer gr early: 0.99

How did CCc1ccc(S(=O)(=O)c2cnc(N3CCN(c4ccccc4Cl)CC3)nc2N)cc1 do in these assays?
Choline anaer gr: inactive; Choline anaer gr early: 0.52

What do the screens show for `Cc1noc(C)c1C1CCCN1C(=O)c1cc2nc(C3CC3)cc(C(F)(F)F)n2n1` (stereo not given)?
Choline anaer gr: inactive; Choline anaer gr early: -1.5

Gathered by group, those above with an aryl methoxy group (4)
What do the screens show for `COc1ccc(-c2noc(CCn3c(=O)[nH]c4ccccc4c3=O)n2)cc1OC`?
Choline anaer gr: inactive; Choline anaer gr early: 1.4

How did COc1ccc(Nc2cc(C(=O)NCc3ccccc3)c3ccccc3n2)cc1OC do in these assays?
Choline anaer gr: inactive; Choline anaer gr early: -2.3

How did COc1ccc2c(c1)CCc1c-2n[nH]c1C(=O)N1CCC(N(C)CCCN2CCOCC2)CC1 do in these assays?
Choline anaer gr: inactive; Choline anaer gr early: 0.77

What do the screens show for `COc1ccc(C(O)(C(C)C)C(CN2CCOCC2)c2ccccc2)cc1` (stereo not given)?
Choline anaer gr: inactive; Choline anaer gr early: 0.28

Back to the main list with the three entries that preceded the break.
Results for Cc1c(C(=O)O)oc2c1C(=O)CCC2 ?
Choline anaer gr: inactive; Choline anaer gr early: 0.99

How did CCc1ccc(S(=O)(=O)c2cnc(N3CCN(c4ccccc4Cl)CC3)nc2N)cc1 do in these assays?
Choline anaer gr: inactive; Choline anaer gr early: 0.52

What do the screens show for `Cc1noc(C)c1C1CCCN1C(=O)c1cc2nc(C3CC3)cc(C(F)(F)F)n2n1` (stereo not given)?
Choline anaer gr: inactive; Choline anaer gr early: -1.5

What do the screens show for `Oc1ccc(OC2CCCCO2)cc1` (stereo not given)?
Choline anaer gr: inactive; Choline anaer gr early: 0.21

How did CC(C)Nc1nc(N(C)C)nc2c1cnn2C do in these assays?
Choline anaer gr: inactive; Choline anaer gr early: 1

Results for O=C1C(O)=C(S(=O)(=O)c2ccccc2)C(c2ccc(Cl)cc2)N1Cc1ccc2c(c1)OCO2 (stereo not given) ?
Choline anaer gr: inactive; Choline anaer gr early: 0.07

Results for Cc1cccc(NC(=O)C2Oc3ccccc3NC2=O)c1 (stereo not given) ?
Choline anaer gr: inactive; Choline anaer gr early: -0.68

Results for CC(=O)Nc1ccc(S(=O)(=O)N2CCCC2c2ccc(Cl)cc2)cc1 (stereo not given) ?
Choline anaer gr: inactive; Choline anaer gr early: 0.78

How did COc1cccc(N2CCN(C(=O)Cn3ccc4c(SCc5ccccc5)nccc43)CC2)c1 do in these assays?
Choline anaer gr: inactive; Choline anaer gr early: 0.46

What do the screens show for `CC1CCC2(CC1)NCCN=C2NC1CCCCCC1` (stereo not given)?
Choline anaer gr: inactive; Choline anaer gr early: -1.3

Results for N[C@H]1CONC1=O ?
Choline anaer gr: inactive; Choline anaer gr early: 0.45&0.22&0.99

What do the screens show for `CCCN(CCC)C(=O)CSc1nc(-c2ccccc2)nc2cc(=O)[nH]n12`?
Choline anaer gr: inactive; Choline anaer gr early: 0.53

What do the screens show for `CC1(C)C(C=C(Cl)Cl)C1C(=O)OCc1cccc(Oc2ccccc2)c1` (stereo not given)?
Choline anaer gr: inactive; Choline anaer gr early: -0.15

Results for Fc1ccc(-c2noc(Cn3ccnc3)n2)cc1 ?
Choline anaer gr: inactive; Choline anaer gr early: -0.15

What do the screens show for `O=C(Nc1ccc2c(c1)OCCO2)N1CCC(c2nc(-c3ccc(F)cc3)no2)CC1`?
Choline anaer gr: inactive; Choline anaer gr early: 0.68

Results for CCSc1nn(CC(=O)Nc2ccccc2)c(N)c1S(=O)(=O)c1ccccc1 ?
Choline anaer gr: inactive; Choline anaer gr early: 0.05

What do the screens show for `CCn1nc2c(S(=O)(=O)N3CCc4ccccc4C3)cccn2c1=O`?
Choline anaer gr: inactive; Choline anaer gr early: -1.7

What do the screens show for `CC1(C)CCC(C)(C)c2cc(NC(=O)c3ccc(C(=O)O)cc3)ccc21`?
Choline anaer gr: inactive; Choline anaer gr early: 0.36

What do the screens show for `O=C(NCCn1c(C(F)(F)F)nc2cccnc21)Nc1ccccc1`?
Choline anaer gr: inactive; Choline anaer gr early: -0.47

How did Cc1ccc(COC2CN(C(=O)CC3CCCC3)C2)cc1 do in these assays?
Choline anaer gr: inactive; Choline anaer gr early: -0.35

How did COc1cc(OC)c(NC(=O)N2CCN(C(=O)Cc3csc4ccccc34)CC2)cc1Cl do in these assays?
Choline anaer gr: inactive; Choline anaer gr early: 0.04

What do the screens show for `Cc1ccc(CCNC(=O)CCCCn2c(=O)[nH]c3ccccc3c2=O)cc1`?
Choline anaer gr: inactive; Choline anaer gr early: -0.35

How did Cc1csc(-c2cc(S(=O)(=O)NCCC3=CCCCC3)cn2CC(=O)N2CCCCC2)n1 do in these assays?
Choline anaer gr: inactive; Choline anaer gr early: 0.46

What do the screens show for `C=CCN(C)C(=O)c1cc2sc(Cl)cc2n1C`?
Choline anaer gr: inactive; Choline anaer gr early: -0.25

How did Cc1cc(C)n2ncc(C(=O)NCCC(C)C)c2n1 do in these assays?
Choline anaer gr: inactive; Choline anaer gr early: 0.21

How did COc1ccc(CNC(=O)c2cc(C)nc3ccccc23)cc1 do in these assays?
Choline anaer gr: inactive; Choline anaer gr early: -1.2

What do the screens show for `C=CCN1C(=O)CC(c2ccc(C)cc2)c2c(C)nn(-c3nc4ccccc4s3)c21` (stereo not given)?
Choline anaer gr: inactive; Choline anaer gr early: -0.59

What do the screens show for `COc1ccc(OC)c(CC2C(=O)N(C)c3ccc(Br)cc32)c1` (stereo not given)?
Choline anaer gr: inactive; Choline anaer gr early: 0.58

What do the screens show for `Cc1ccc(/C(=C\CN2CCCC2)c2ccccn2)cc1`?
Choline anaer gr: inactive; Choline anaer gr early: -0.02&-0.2&-1.5&0.23

Results for COc1ccc(C2=NN(C(=O)CCC(=O)O)C(c3cn(-c4ccccc4)nc3-c3ccc(C)cc3)C2)cc1 (stereo not given) ?
Choline anaer gr: inactive; Choline anaer gr early: -0.66

How did CCS(=O)(=O)N1CCCC(C(=O)NCCN2CCC(Cc3ccccc3)CC2)C1 (stereo not given) do in these assays?
Choline anaer gr: inactive; Choline anaer gr early: 0.32

What do the screens show for `CCC12CN3CC(C)(CN(C1)C3c1cc(Br)ccc1O)C2=O` (stereo not given)?
Choline anaer gr: inactive; Choline anaer gr early: -0.39

What do the screens show for `CCCS(=O)(=O)c1nc2ccc(NS(=O)(=O)Cc3ccccc3)cc2s1`?
Choline anaer gr: inactive; Choline anaer gr early: -3.1

What do the screens show for `COc1cccc(Oc2ccnc(-c3cccc(C(=O)NCc4ccc(Br)cc4)c3)n2)c1`?
Choline anaer gr: inactive; Choline anaer gr early: -0.2

Results for COc1cccc(NC(=O)C2CCCN2S(=O)(=O)c2cccc3nsnc23)c1 (stereo not given) ?
Choline anaer gr: inactive; Choline anaer gr early: 1.5

How did O=C(CCCn1nnc2cc(S(=O)(=O)N3CCCC3)ccc21)NCc1cccnc1 do in these assays?
Choline anaer gr: inactive; Choline anaer gr early: -1.2

Results for Cc1ccc(NC(=O)Cn2ncc(-c3ccc(Cl)cc3)nc2=O)c(C)c1 ?
Choline anaer gr: inactive; Choline anaer gr early: 0.08

Results for COc1cc(C2CC(=O)Nc3c2c(C)nn3-c2nncc(-c3ccc(C)cc3)n2)ccc1OC(C)C (stereo not given) ?
Choline anaer gr: inactive; Choline anaer gr early: -0.31

What do the screens show for `CC(C)CCNC(=O)C1CCN(c2nc3ccccc3o2)CC1`?
Choline anaer gr: inactive; Choline anaer gr early: 0.1

What do the screens show for `c1ccc(-c2noc(CN3CCN(c4ccccc4)CC3)n2)cc1`?
Choline anaer gr: inactive; Choline anaer gr early: 0.99

How did Clc1ccc(C(CNc2nn3cnnc3c3ccccc23)N2CCCCC2)cc1 (stereo not given) do in these assays?
Choline anaer gr: inactive; Choline anaer gr early: -0.1

Results for CCCCSc1nnc2c(n1)OC(c1ccc(N(C)C)cc1)N(C(C)=O)c1ccccc1-2 (stereo not given) ?
Choline anaer gr: inactive; Choline anaer gr early: 0.56

What do the screens show for `Cc1cc(C(=O)NCCC(C)C)c2c(=O)n(C)c(=O)n(C)c2n1`?
Choline anaer gr: inactive; Choline anaer gr early: -0.1

An excerpt from above in order of number of heavy atoms, highest first.
Results for CCCCSc1nnc2c(n1)OC(c1ccc(N(C)C)cc1)N(C(C)=O)c1ccccc1-2 (stereo not given) ?
Choline anaer gr: inactive; Choline anaer gr early: 0.56

How did COc1ccc(CNC(=O)c2cc(C)nc3ccccc23)cc1 do in these assays?
Choline anaer gr: inactive; Choline anaer gr early: -1.2

How did Cc1cc(C)n2ncc(C(=O)NCCC(C)C)c2n1 do in these assays?
Choline anaer gr: inactive; Choline anaer gr early: 0.21

Other compounds follow.
Results for CCN(CC)C(=O)Cn1c(=O)n(CC2CCC(C(=O)N3CCCCC3)CC2)c(=O)c2sccc21 (stereo not given) ?
Choline anaer gr: inactive; Choline anaer gr early: -0.34

How did O=C(CC1CCCC1)N1CCN(c2ncnc3c2nnn3-c2ccc(F)cc2)CC1 do in these assays?
Choline anaer gr: inactive; Choline anaer gr early: -0.54

What do the screens show for `O=C(Nc1cccc(Cl)c1)c1nnc(C2CCCN(C(=O)Nc3ccccc3Cl)C2)s1` (stereo not given)?
Choline anaer gr: inactive; Choline anaer gr early: 0.81

How did CC1Cc2ccccc2N1S(=O)(=O)c1ccc2c(c1)CCN2C(=O)CCC(=O)N1CCOCC1 (stereo not given) do in these assays?
Choline anaer gr: inactive; Choline anaer gr early: -0.46

What do the screens show for `COC(=O)CC1=CC(SCC(=O)Nc2cccc(C)c2)=Nc2ccccc2N1`?
Choline anaer gr: inactive; Choline anaer gr early: 0.4

Results for CCn1c(C)nnc1SCc1nc(-c2ccc(OC)c(OC)c2)oc1C ?
Choline anaer gr: inactive; Choline anaer gr early: -0.05

What do the screens show for `c1ccc2[nH]c(-c3nn4c(C5CCCCC5)nnc4s3)cc2c1`?
Choline anaer gr: inactive; Choline anaer gr early: -1.3

What do the screens show for `CN(C)c1ccc(-c2nc3sc4ccccc4n3c2NC(C)(C)C)cc1`?
Choline anaer gr: inactive; Choline anaer gr early: -1.9

What do the screens show for `COc1ccc(S(=O)(=O)N2CCc3cc4cc(C)ccc4nc32)cc1`?
Choline anaer gr: inactive; Choline anaer gr early: -1

Results for O=C(CSc1nc2ccccc2n1Cc1cccc(F)c1)N1CCN(c2ccc(F)cc2)CC1 ?
Choline anaer gr: inactive; Choline anaer gr early: -1.1

How did CC1CCC(C(=O)NC(Cc2c[nH]c3ccccc23)C(=O)Nc2ccncc2)CC1 (stereo not given) do in these assays?
Choline anaer gr: inactive; Choline anaer gr early: 1.2

How did CCSc1nnc(-c2nn(C)c3c2CN(S(=O)(=O)c2ccccc2Cl)CC3)n1CC do in these assays?
Choline anaer gr: inactive; Choline anaer gr early: -0.33

What do the screens show for `O=C(c1c(O)c2ccc(Cl)cc2[nH]c1=O)C1CC1`?
Choline anaer gr: inactive; Choline anaer gr early: 0.38

What do the screens show for `Cc1sc(-c2ccno2)cc1S(=O)(=O)NC(C)(C)C`?
Choline anaer gr: inactive; Choline anaer gr early: 0.19

How did COc1ccc(-n2nc(N3CCC(C(=O)NCc4cccc(Cl)c4)CC3)ccc2=O)cc1 do in these assays?
Choline anaer gr: inactive; Choline anaer gr early: -0.81
